Sfp PPTase inh: qHTS Assay for Inhibitors of Bacillus subtilis Sfp phosphopantetheinyl transferase (PPTase) | Biochemical Sfp PPTase activity, qHTS | 4'-phosphopantetheinyl transferase ffp (Bacillus subtilis), Q9F4F7 | Potency, µM, for the others: max response, negative = inhibition, usual class: inhibitors | 310,000 tested, 3.5% active; active = well fitted inhibition curve with a large enough effect; inconclusive = small, poorly fitted or top-dose-only effect, or another doubt; inactive = no such curve, though single readings can be large or run the other way;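 note: the enzyme is Sfp with the accession as filed and its product quenches rhodamine fluorescence; potency is the fitted concentration of half-maximal effect; 0% = enzyme reaction without inhibitor and -100% = no enzyme wells; top concentration of the series not given in the record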
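Fluorescence-quenching assay: 15 nM Sfp-PPTase preincubated 15 min at room temperature with compound, then 5 uM rhodamine-CoA and 12.5 uM BHQ-2-labelled YbbR peptide added. Fluorescence (ex 525/em 598 nm) read at start and after 30 min; difference gives rate.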
gsp antag: qHTS for Antagonists of gsp, the Etiologic Mutation Responsible for Fibrous Dysplasia/McCune-Albright Syndrome: qHTS | gsp-mutant cells, cAMP HTRF, 30 min; control for the full effect not named in the record | Potency, µM (highest dose often 76.9 µM), inactives show top-dose activity change, negative = inhibition, actives largely listed as inhibitors | 340,000 tested, 0.4% active | AID 624288, 2012; active = falling curve of any shape with a large fitted effect; inconclusive = falling curve, mostly with a smaller effect; inactive = flat or rising curve; cell line not stated here;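 note: intracellular cAMP measured with PDE inhibitor Ro 20-1724 present during compound exposure; potency is the fitted concentration of half-maximal effect; % is set by controls: 0 for no effect and ±100 for the full control effect; nearly all actives have a fitted effect of over 65% in size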
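Cells in G418 medium, seeded 16-24 h, 37C; buffer exchange to DPBS + 1 mM CaCl2, 0.5 mM MgCl2, 0.05% BSA; cpds in DMSO + […] (300 uM stock), 30 min 37C; HTRF cAMP detection.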
Menin-MLL FL inh: qHTS Assay for Inhibitors Targeting the Menin-MLL Interaction in MLL Related Leukemias: Competition With Fluorescein Labeled MLL-derived Peptide; Fluorescence polarization, fluorescein-MLL peptide displacement from menin; FP activity change, % at 61.4 µM; 290,000 tested, under 10 active; inconclusive = falling polarisation curve, or a change in total fluorescence; inactive = total fluorescence flat and polarisation flat or rising; no compound was filed as active; the % refers to the polarisation; negative = inhibition;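 note: % of control where 0% means no effect; inhibitors lower the polarisation; unlabelled MLL peptide was the positive control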
TRPML1 blocker: qHTS for Inhibitors of the Human Mucolipin Transient Receptor Potential 1 (TRPML1); Mucolipin-1 (Homo sapiens), Q9GZU1; TRPML1-inducible cells, Ca2+ dye fluorescence, FDSS; hits give low values; inhibition of EC80 agonist-evoked calcium signal; activity change, negative = inhibition, % (concentration not given with the values); 390,000 tested, 0.02% active; AID 624415, 2012; in the data active means activity change below about -50%; inconclusive means about -30% to -50%; inactive means above about -30%;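 note: stimulus is agonist 54-4 at its EC80 concentration; % is set by controls: 0 for no effect and ±100 for the full control effect; compound concentration not given in the record; the text of the record puts the active cut at -80%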
Target sequence (Q9GZU1 whole entry, looked up): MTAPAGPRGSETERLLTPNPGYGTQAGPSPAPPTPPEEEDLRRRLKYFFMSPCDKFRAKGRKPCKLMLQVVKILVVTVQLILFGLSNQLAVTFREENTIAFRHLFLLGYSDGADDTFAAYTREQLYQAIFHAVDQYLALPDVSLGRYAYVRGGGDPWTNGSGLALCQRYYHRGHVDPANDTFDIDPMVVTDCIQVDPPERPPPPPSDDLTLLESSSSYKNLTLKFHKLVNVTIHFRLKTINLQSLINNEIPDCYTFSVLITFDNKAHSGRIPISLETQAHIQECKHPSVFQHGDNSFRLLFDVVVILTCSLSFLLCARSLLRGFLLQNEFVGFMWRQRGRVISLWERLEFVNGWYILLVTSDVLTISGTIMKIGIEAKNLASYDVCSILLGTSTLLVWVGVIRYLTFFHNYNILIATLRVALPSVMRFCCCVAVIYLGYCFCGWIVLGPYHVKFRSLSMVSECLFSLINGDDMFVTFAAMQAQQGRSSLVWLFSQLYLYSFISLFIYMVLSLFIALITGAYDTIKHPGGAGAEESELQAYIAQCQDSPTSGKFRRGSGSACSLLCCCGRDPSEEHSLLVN
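Tet-induced TRPML1-DL cells loaded with Ca8 no-wash calcium dye were read kinetically on FDSS. Compound addition was followed by EC80 agonist 54-4 (4 uM final); inhibition was read over 110 s.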
ClpP mod: qHTS Assay for Activators of ClpP. AID 651965, 2013. ATP-dependent Clp protease proteolytic subunit (Bacillus subtilis (strain 168)), P80244. Potency, µM (highest dose often 57.5 µM), for inactives: top-dose activity change, negative = active. purified B. subtilis ClpP, FRET peptide cleavage, 20 min. 340,000 tested, 1.9% active; active = well fitted falling curve with a large enough effect; inconclusive = small, poorly fitted or top-dose-only effect; inactive = no such curve, though single readings can be large or run the other way; note: potency is the fitted concentration of half-maximal effect; the source files actives as falling curves though it sought activators and does not explain the sign; nearly all actives have a fitted effect of over 65% in size; many hits overshoot -100%
Target sequence (P80244 whole entry, looked up): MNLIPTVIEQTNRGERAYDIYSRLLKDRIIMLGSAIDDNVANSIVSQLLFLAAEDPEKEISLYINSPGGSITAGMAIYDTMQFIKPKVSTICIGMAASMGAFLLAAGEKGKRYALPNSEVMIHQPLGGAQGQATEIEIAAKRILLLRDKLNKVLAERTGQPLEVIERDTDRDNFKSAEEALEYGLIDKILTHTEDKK
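Buffer: 100 mM Tris/HCl pH8, 100 mM KCl, 0.05% low protease BSA, 2.5% glycerol, 0.01% Tween-20. ClpP 10 microg/mL final; 20 min RT; delta FRET normalized to ADEP and DMSO controls.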
TRPV1 PAM: HTS Assay for Compounds that Act as Potentiators of the Vanilloid Receptor 1 | Transient receptor potential cation channel subfamily V member 1 (Homo sapiens), Q8NER1 | TRPV1-expressing cells, Fluo-8 calcium influx, capsaicin EC20 potentiation; host cell line not named in the record; control for the full effect not named in the record | potentiation, % at 8.33 µM | 320,000 tested, 0.02% active; active means potentiation above 80%; inconclusive means 30% to 80%; inactive means below 30%; note: 0% is about no effect
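Cells expressing TRPV1 were dye-loaded with Fluo-8 and read kinetically: 10 s baseline, 3 min after compound (agonist portion), then 2 min after EC20 capsaicin (allosteric enhancer portion). Calcium-bound dye fluorescence at 480/520 nm.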
gsp ag: qHTS for Agonist of gsp, the Etiologic Mutation Responsible for Fibrous Dysplasia/McCune-Albright Syndrome: qHTS; AID 624287, 2012; gsp mutant cells, cAMP HTRF, 30 min; control for the full effect not named in the record; Potency, µM (series often up to 76.9 µM), for the others: top-dose activation (cAMP increase), most hits filed as activators; 340,000 tested, 0.13% active; active = well fitted activation curve with a large enough effect; inconclusive = small, poorly fitted or top-dose-only effect, or another doubt; inactive = no such curve, though single readings can be large or run the other way; cell line not stated here;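 note: phosphodiesterase inhibitor Ro 20-1724 added with compounds to block cAMP breakdown; potency is the fitted concentration of half-maximal effect; nearly all actives have a fitted effect of over 60% in size; about a fifth of the inactives were tested at one dose only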
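Cells stably selected in G418 were plated at 2000/well, grown 16-24 hr, then given compounds in DMSO with the PDE inhibitor […] (300 uM solution added) for 30 min at 37C; cAMP was read by HTRF.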
* = called active by the depositor; ? = inconclusive; / = no result given; & = joins results of further samples; [ ] = dose if it differs, or a comment.

mol,gsp antag,ClpP mod,gsp ag,Sfp PPTase inh,TRPV1 PAM,Menin-MLL FL inh,TRPML1 blocker
O=C(O)C1CCCCC1C(=O)Nc1ccc2c(c1)OCCO2 (stereo not drawn),8%,-2.2%,-19%,9%,-2,-1.0,0
CCOC(=O)C1(Cc2ccc(OC)cc2)CCN(C(=O)CN2CCCCC2=O)CC1,4%,/,6%[15.4 µM],5%,13,-5.4,13
O=C(NC(=S)Nc1cccnc1)c1cccc(Br)c1,1%,/,-23%,2%,6,-0.8,10
COCCOC(=O)/C(C#N)=C/c1cn(Cc2ccccc2)nc1-c1cccnc1,-4%,-11%,5%[15.4 µM],10%,11,-3.6,18
CO/N=C/c1c(-c2ccc(Cl)cc2)nc2cc(C)ccn12,?,/,22%,-12%,-11,3.2,-1
CCCN1C(=O)/C(=C/c2ccc(C)o2)SC1=Nc1ccc(OC)cc1,2%,-2.5%,3%,35µM*,-15,9.6,10
C=CCn1c(SCc2ccc(C(=O)NCCO)cc2)nc2ccccc2c1=O,-18%,-1.3%,-2%,6%,-45,4.8,-10
Cc1cc(C)c(C)c(S(=O)(=O)N2CCN(c3ncnc4ccccc34)CC2)c1C,35µM*,-7.2%,0%,/,1,/,3
O=C(O)C1CC1C(=O)Nc1nc2c(Cl)cccc2s1 (stereo not drawn),11%,-0.5%,-1%,19%,-6,-8.1,22
Cc1ccc(NS(=O)(=O)c2cc(C(=O)Nc3cccnc3)ccc2C)cc1,9%,0.4%,6%,-21%,4,/,-6
CCn1c(C)c(C)c2cc(C(=O)NCCCN3CCCCC3C)ccc21 (stereo not drawn),-11%,-17%&-1.6%,-72%[inhibitor],2%,-1,/,-20&-18
COc1ccc(C(=S)N2CCN(c3cccc(Cl)c3)CC2)cc1,-4%,-2.7%,-1%[15.4 µM],?,-2,0.8&-2.3,14
CCCCCC(=O)N1CC2(CC(c3cccc(NC(=O)CC(c4ccccc4)c4ccccc4)c3)=NO2)C[C@@H]1C(N)=O (stereo partly drawn),-13%,-1.5%,/,3%,11,3.0,0
O=C(Nc1ccccc1N1CCOCC1)c1cccc2c(Br)cccc12,-8%,-2.6%,5%,-5%,-2,-0.4,41
COc1ccc(C(=S)Nc2ccc(N(C)C)cc2)cc1,6%,17%,-28%,0%,-13,4.7,12
COc1ccc2oc(C)c(C(N)=O)c2c1,6%,-1.0%,-4%,10%,8,5.2,9
COc1ccc(NC(=O)c2ccc3c(c2)CCN3S(=O)(=O)c2ccccc2)c(OC)c1,-10%,-22%,-50%[inhibitor],12%,7,0.0,58
COc1ccccc1-c1cc(C(=O)NCCc2ccccc2)no1,2%,?,-39%[inhibitor],?,?,6.4,10&4
C=CCNC(=S)NC(CC(=O)OC)c1ccc2c(c1)OCO2 (stereo not drawn),4%,-1.7%,-16%,15%,-6,-0.7,-8
Cc1c(C(=O)C(=O)N2CCCc3ccccc32)c2ccccc2n1C,4%,/,9%[15.4 µM],-8%,0,-1.0,57
CCOC(=O)C1=C(N)N2C(=O)C(C)SC2=C(C(=O)OC)C1c1ccccc1OC (stereo not drawn),-11%,-19%,-17%,2%,-6,-0.9,50
COc1ccccc1C(=O)N(CN1CCCC1=O)c1cccc(Cl)c1,7%,-2.0%,7%,6%,5,2.9,5
O=C(c1[nH]ncc1-c1ccccc1)C1CO1 (stereo not drawn),2%,/,-1%[15.4 µM],-17%,-8,?,8
COc1ccc(Nc2nc(N)nc(CSC(=S)N3CCCCC3C)n2)cc1 (stereo not drawn),-9%,/,12%,16%,-18,-3.7,-23
CCn1c(C)[n+](CC(O)COCC2CC=CCC2)c2ccccc21 (stereo not drawn),5%,-0.8%,-2%,-1%,-2,4.4,-6
CC(C)(C)C(=O)N1CCN(c2ccc([N+](=O)[O-])c(-n3nc(-c4ccccc4)c4ccccc4c3=O)c2)CC1,-3%,1.7%,-3%[15.4 µM],-2%,-3,2.9,8
CCn1c(C(=O)N2CCC(Cc3ccccc3)CC2)cc2sccc21,0%,0.1%,-1%,-3%,-10,1.3,13
CCOc1ccc(N2CC(C(=O)N3CCCc4ccccc43)CC2=O)cc1 (stereo not drawn),-11%,/,4%,-18%,-2,-0.4,13
CC(=O)c1ccc(NC(=O)COC(=O)Cc2ccsc2)cc1,11%,0.2%,-9%,/,/,/,28
S=c1[nH]nc(-c2cccnc2)n1-c1ccccc1,0%,-1.4%,-15%,79µM*,-14,2.8,-17
Cc1ccc(OCC(=O)Nc2ccc3c(c2)C(=O)NC3=O)cc1,-12%,-2.9%,-26%,1%,-18,/,23
COc1ccc(/C=C2\SC(N3CCCCC3)=NC2=O)cc1,-24%,-2.7%,-63%[inhibitor],3%,0,?,-12
O=C(COC(=O)c1ccccc1)Nc1ccc2[nH]c(=O)[nH]c2c1,14%,/,-7%[15.4 µM],/,10,/,6
CN(CC(=O)NCCc1ccc(S(N)(=O)=O)cc1)Cc1c(F)cccc1Cl,12%,/,-3%[15.4 µM],10%,-6,-5.1,2
Cc1cccc(-n2c(SCC(=O)N3CCC(C(=O)O)CC3)nc3ccccc3c2=O)c1C,-1%,/,?,-1%,1,?,9
Cc1cc(C)nc(NS(=O)(=O)c2ccc(NC(=S)NC(=O)c3cccnc3)cc2)n1,-17%,/,1%[15.4 µM],40µM*,-9,-0.7,0
O=C(CN1CCN(CC(=O)c2ccccc2)CC1)c1ccccc1,4%,/,2%,/,/,/,-7
Cc1ccc(-c2cc(C(=O)N/N=C/c3ccco3)n[nH]2)s1,-9%,-2.1%,3%,3%,11,8.3,6
COc1cccc(-c2cc(C(F)(F)F)n3ncc(S(=O)(=O)c4ccccc4)c3n2)c1,5%,?,5%,3%,-2,0.9,11
CC(NC(=O)CSc1nc(C2CC2)n(-c2ccccc2)n1)c1ccco1 (stereo not drawn),-15%,-0.5%,-1%,/,-19,/,32
CCOC(=O)C1=C(C)NC2=C(C(=O)CC(C)(C)C2)C1c1ccsc1 (stereo not drawn),-13%,-25%,9%,-15%,-3,3.4,8
COc1cc(C(=O)N/N=C2\CCS(=O)(=O)c3ccc(F)cc32)cc(OC)c1OC,4%,-1.4%,-47%,9%,-6,3.2,7
O=c1[nH][nH]c(-c2ccccc2)c1C=Nc1ccccc1,0%,-2.3%,9%[15.4 µM],3%,-10,3.2,6
Cc1ccccc1NC(=S)NNC(=O)c1cccnc1,3%,-19%,-1%[15.4 µM],-8%,0,0.7,4
CC(=O)C(Sc1ncnc2sc3c(c12)CCCC3)C(C)=O,-2%,0.8%,-60%[inhibitor],10%,16,4.9,-2
COc1ccc(CN2CCN(C(=O)c3cc(OC)c(OC)c(OC)c3)CC2)cc1OC,4%,1.4%,-21%,-30%,-4,1.0,9
Brc1cccc2sc(N3CCCC3)nc12,-14%,/,15%[15.4 µM],-13%,-21,-0.5,21
CCOP(=O)(c1ccccc1)C(O)c1ccccc1 (stereo not drawn),-17%,?,-23%,11%,8,0.8,-12
O=c1cc(CSc2nnc(COc3ccccc3Cl)o2)nc2sccn12,3%,-0.4%,22%,-11%,-10,-2.6,7
CCOC(=O)C1=C(C)N(C)C(=O)NC1c1ccc(C)s1 (stereo not drawn),5%,-1.3%,-52%[inhibitor],9%,-1,3.1,19

Next section
mol,gsp antag,ClpP mod,gsp ag,Sfp PPTase inh,TRPV1 PAM,Menin-MLL FL inh,TRPML1 blocker
CC(=O)Nc1ccc(SCC(Cc2ccccc2)N2CCN(CC(C)C)CCC2=O)cc1 (stereo not drawn),/,/,/,-5%,/,-2.5,8
CCC(CC)C(=O)Nc1cc(C(=O)OC)cc(C(=O)OC)c1,3%,-1.3%,-26%,-1%,9,3.2,-13
CC(C)c1ccc(-c2csc(NC(=O)c3cccs3)c2C(=O)O)cc1,-22%,-3.8%,6%,13%,-3,-1.7,-4
Cc1noc(C)c1CSCC(=O)NCCN1C(=O)S/C(=C\c2ccccc2F)C1=O,?,4.2%,11%[15.4 µM],/,-3,/,26
CCc1ccc(N2C(=O)c3ccc4c5c(ccc(c35)C2=O)CC4)cc1,-7%,25µM*,5%,5%,17,1.4,21
O=C(Nc1c2c(nc3ccccc13)CCCC2)c1cccc([N+](=O)[O-])c1,13%,-2.4%,26%[15.4 µM],30%[activator],-11,1.2,21
COc1cc(NC(=O)Cn2cnc3c(NCc4ccccc4)ncnc32)cc(OC)c1OC,7%,-1.5%,/,/,/,/,-4
Cc1cccc(C)c1NC(=O)CNC(=O)C(C)NC(C)c1ccccc1Br (stereo not drawn),-17%,1.5%,6%,/,1,/,-14
Nc1nc2c(-c3ccc(Br)cc3)nnn2c2ccccc12,4%,?,?,11%,3,0.3,41
CCC1(C)Cc2c(sc3c2c(=O)n(C)c2nnc(SCCc4ccccc4)n32)CO1 (stereo not drawn),2%,-4.5%,-14%,4%,-2,0.8,-13
COc1ccc(CCNC(=O)CC2Nc3ccccc3NC2=O)cc1 (stereo not drawn),-10%,?,-20%,-13%,5,-1.1,-2
N#CCSc1ncnc2c1cnn2CCO,13%,-1.9%,10%,9%,-7,-2.5,-7

Not a hit list. Share with any hit: about 4.9%.
